Marburg entry inh – qHTS for inhibitors of binding or entry into cells for Marburg Virus; Potency, µM (top dose mostly 37.8 µM), inactives show top-dose activity change, negative = inhibition, most hits filed as inhibitors; 300,000 tested, 1.8% active; Marburg virus pseudotyped entry inhibition, cell reporter; control for the full effect not named in the record; about a third of the inactives were read at about 46 µM; active = well fitted inhibition curve with a large enough effect; inconclusive = small, poorly fitted or top-dose-only effect, or effect the other way; inactive = flat fitted curve, though single readings scatter; tested in HEK293 cells; about a fifth of its hits are not listed in these tables; also: % is scaled to controls: 0 for no effect and ±100 for the full control effect; luciferase read-out
Cruzain inh noDet – qHTS Assay for Promiscuous and Specific Inhibitors of Cruzain (without detergent). Cruzipain (Trypanosoma cruzi), P25779. purified cruzain, Z-FR-AMC fluorescence, no detergent. Potency, µM, for inactives: max response, negative = inhibition, actives largely listed as inhibitors. 200,000 tested, 2.3% active; active = well fitted curve in the direction sought with a large enough effect; inconclusive = small, poorly fitted or top-dose-only effect, or another doubt; inactive = no such curve, though single readings can be large; an effect the other way counts as inactive or inconclusive;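 also: plate controls were enzyme without inhibitor for no effect and buffer without enzyme for full effect; nearly all actives have a fitted effect of over 40% in size; top concentration of the series not given in the record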
Target sequence (P25779 123-467 limits assumed): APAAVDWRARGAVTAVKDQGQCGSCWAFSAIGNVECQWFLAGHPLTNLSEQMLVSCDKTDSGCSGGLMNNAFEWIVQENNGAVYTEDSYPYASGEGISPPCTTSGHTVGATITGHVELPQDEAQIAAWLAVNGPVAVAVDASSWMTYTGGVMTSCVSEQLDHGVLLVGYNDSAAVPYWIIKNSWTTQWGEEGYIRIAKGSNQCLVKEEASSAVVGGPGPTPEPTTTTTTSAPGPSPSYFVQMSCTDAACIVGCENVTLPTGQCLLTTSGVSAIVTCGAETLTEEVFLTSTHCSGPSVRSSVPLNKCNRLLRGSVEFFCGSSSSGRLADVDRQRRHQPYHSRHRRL
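Purified cruzain at 1.5 nM, pre-incubated 15 min with compound at room temperature in 100 mM sodium acetate pH 5.5, 5 mM DTT, 0.00005% Triton X-100. Reaction started with 2 uM Z-FR-AMC; AMC fluorescence increase over 60 s gives rate.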
SARS PLP yeast – qHTS of Yeast-based Assay for SARS-CoV PLP | S. cerevisiae expressing SARS-CoV PLpro, growth rescue; control for the full effect not named in the record | Potency, µM (series often up to 32.9 µM), for the others: at the top dose activity, positive = growth rescue | 330,000 tested, 0.19% active | AID 485353, 2010; also: 0% is about no effect; nearly all actives have a fitted effect of over 55% in size; growth read by luminescence after 48 h
RE007 growth inh – qHTS Assay for Inhibitors of the HIV-1 protein Vpr. S. pombe RE007 Vpr strain, BacTiter-Glo ATP luminescence, 24 h; control for the full effect not named in the record. Potency, µM (top dose mostly 92.2 µM), inactives show at the top dose activity change, negative = less growth. 360,000 tested, 0.21% active; active = well fitted falling curve with a large enough effect; inconclusive = small, poorly fitted or top-dose-only effect; inactive = no such curve, though single readings can be large or run the other way;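 also: % is scaled to controls: 0 for no effect and ±100 for the full control effect; nearly all actives have a fitted effect of over 50% in size; the assay follows cell death caused by Vpr and the record does not say whether a fall means rescue or toxicity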
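Fission yeast RE007 carrying one integrated HIV-1 vpr copy, seeded at OD 0.01 in PMG+AL medium with 23 nL pinned compound. Grown 24 h at 30 degrees; viability read by BacTiter-Glo luminescence after 5 min.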
NS1 function inh – qHTS Assay for Inhibitors of Influenza NS1 Protein Function | S. cerevisiae slowed by influenza A NS1, growth recovery by OD600 | Potency, µM (series often up to 46.1 µM), inactives show at the highest dose activity, positive = more growth | 270,000 tested, 0.4% active; also: actives are rising curves; nearly all actives have a fitted effect of over 50% in size
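In this qHTS, NS1 from influenza A is expressed in budding yeast, where it slows growth. Cells are switched from glucose to 2% galactose medium (pH 6.0, -URA), treated with compound, and growth recovery is read at OD600.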
Cruzain inh Det – qHTS Assay for Promiscuous and Specific Inhibitors of Cruzain (with detergent); Potency, µM, inactives show max response, negative = inhibition, hits mostly inhibitors; 200,000 tested, 0.43% active; AID 1478, 2009; purified cruzain, Z-FR-AMC fluorescence, 0.01% Triton; Cruzipain (Trypanosoma cruzi), P25779; active = well fitted curve in the direction sought with a large enough effect; inconclusive = small, poorly fitted or top-dose-only effect, or another doubt; inactive = no such curve, though single readings can be large; an effect the other way counts as inactive or inconclusive;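 also: plate controls were neutral wells for no effect and buffer without enzyme for full effect; nearly all actives have a fitted effect of over 40% in size; top concentration of the series not given in the record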
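Cruzain (1.5 nM) preincubated 15 min at RT with compound in 100 mM sodium acetate pH 5.5, 5 mM DTT, 0.01% Triton X-100. Reaction started with 2 uM Z-FR-AMC; AMC fluorescence (ex 360/em 450 nm) change over 60 s gave rate.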
LASV entry inh – qHTS for Inhibitors of binding or entry into cells for Lassa Virus; 300,000 tested, 1.2% active; Lassa virus pseudotype entry inhibition, cell reporter; control for the full effect not named in the record; Potency, µM (titrated, usually from 37.9 µM), for the others: top-dose activity change, negative = inhibition, usual class: inhibitors; active means well fitted inhibition curve with a large enough effect; inconclusive means small, poorly fitted or top-dose-only effect, or effect the other way; inactive means flat fitted curve, though single readings scatter; tested in HEK293 cells; also: % is scaled to controls: 0 for no effect and ±100 for the full control effect; nearly all actives have a fitted effect of over 50% in size; luciferase read-out
StopGo reporter – High Throughput Screening for Foot and Mouth Disease Virus Antivirals. human cells with a luciferase reporter of 2A StopGo recoding; control for the full effect not named in the record. Potency, µM (top dose mostly 57.9 µM), inactives show top-dose signal change, negative = less light. 410,000 tested, 1.2% active. AID 1159524, 2015; active = well fitted falling curve with a large enough effect; inconclusive = small, poorly fitted or top-dose-only effect; inactive = no such curve, though single readings can be large or run the other way; tested in HEK293T cells; also: % is scaled to controls: 0 for no effect and ±100 for the full control effect; nearly all actives have a fitted effect of over 45% in size; luciferase light after 4 h
* = called active by the depositor; ? = inconclusive; · = not tested or not shown; & = joins results of further samples; [ ] = another dose, or the depositor's remark. Unless noted, calls follow the shape of the dose curve; as a rule, active means well fitted rising curve with a large enough effect; inconclusive means small, poorly fitted or top-dose-only effect; inactive means no such curve, though single readings can be large or run the other way. Potency is read from the fitted curve at half-maximal effect.

smiles	LASV entry inh	NS1 function inh	Marburg entry inh	StopGo reporter	RE007 growth inh	Cruzain inh Det	Cruzain inh noDet	SARS PLP yeast
CNc1c(NS(=O)(=O)c2cc(Cl)ccc2OC)c(=O)oc2ccccc12	0%[46.1 µM]	1%	10%[46.1 µM]	3%	2%	·	·	9%
CCC(C)n1ncn(-c2ccc(N3CCN(c4ccc(O)cc4)CC3)cc2)c1=O (centres undefined)	?	6%	-2%	?	51%	0.2%	7%	1%
NNc1nc(Nc2ccccc2)nc(Nc2ccccc2)n1	-6%[46.1 µM]	·	2%[46.1 µM]	6%	9%	·	·	-4%
CC(=O)N1c2ccc(S(=O)(=O)NCC3CCC(C(=O)Nc4ccc(C)c(C)c4)CC3)cc2CC1C (centres undefined)	7%[46.1 µM]	·	·	18µM*	·	0.0%	4%	·
Cc1ccc(Cl)c(N/C=C/C(=O)c2ccccc2)c1	·	-47%	·	33%[activator]	-6%	·	·	-3%
Cc1cc(O)c(C(C)C)cc1NC(=O)Nc1cc(Cl)ccc1Cl	-15%[46.1 µM]	·	?	7%	-2%	·	·	·
O=C(NN=C1CCCCCCC1)c1ccc2ccccc2n1	-6%[46.1 µM]	·	?	44%[activator]	16%	·	·	-3%
O=C(CNC(=O)C1CCCCC1)NCCCO	8%	5%	10%	-17%	-2%	1.8%	1%	-11%
COc1ccc(-c2nsc3c(N4CCN(S(=O)(=O)c5ccccc5)CC4)ncnc23)cc1	·	-4%	-5%	·	·	-1.1%	3%	3%
COC(=O)[C@@]1(Cc2ccc(OC)cc2)[C@H]2c3cc(C(=O)N4CCCC4)n(Cc4ccc(C)o4)c3C[C@H]2CN1C(=O)c1ccccc1	?	?	?	·	·	-2.4%&1.2%	?	11%
Cc1cccc(CCN(C(=O)c2csnn2)C(C(=O)NC2CCCC2)c2ccco2)c1 (centres undefined)	?	3%	?	28%	-18%	·	·	0%
CC(=O)N(CCN1CCOCC1)Cc1cc2cc3c(cc2nc1Cl)OCO3	·	2%	·	-1%	4%	·	·	0%
Cc1ccc2c(c1)c1c3n2CCN(C(=O)CN2CCN(C)CC2)C3CCC1 (centres undefined)	?	-3%	·	3%	-1%	-3.4%	-10%	1%
CCC(=O)Nc1c(-c2ccccc2Cl)c(=O)c2ccccc2n1C	·	7%	·	-2%	-28%	·	·	3%
COc1ccc(C)cc1NC(=S)N1CCN(c2ncccn2)CC1	-1%	-1%	-15%[14.2 µM]	7%	-4%	·	·	-2%
c1ccc(COC(CN2CCCCCC2)CN2CCCCCC2)cc1	·	5%	·	-6%	-19%	·	·	1%
COc1ccc(S(=O)(=O)n2ccnc2)cc1C(C)(C)C	1%[46.1 µM]	·	-5%[46.1 µM]	38%[activator]	·	0.7%	-10%	·
O=C(Cc1c(F)cccc1Cl)Nc1ccncc1	-19%	-39%	1%	·	-10%	-0.1%	-4%	-7%
CCN(CC)c1cc(C)c2cc(NC(=O)c3cccc(OC)c3OC)ccc2n1	15%[46.1 µM]	·	-3%[46.1 µM]	-25%	·	-12%	7%	·
Cc1ccccc1NC(=O)Cc1c[nH]c2ccccc12	·	4%	·	26%	-21%	·	·	0%
O=C(COc1ccc(Cl)cc1)NNC(=O)c1ccccn1	-23%	-8%	-25%	-6%	-22%	1.4%	-5%	1%
O=C(CC(=O)NC1CCCCC1)N/N=C/c1cccc2ccccc12	-2%	11%	1%	1%	63%	-2.1%	?	1%
CNC(=O)c1nc[nH]c1C(=O)NC	1%	-4%	15%	18%	13%	0.9%	-13%	·
CCOC(=O)CCP(=O)(O)C(C)(O)c1ccccc1 (centres undefined)	?	-3%	7%	-16%	-7%	2.7%	0%	3%
CCCN(CC1CCCO1)C(=O)CCc1nnc(CCc2ccc(OC)cc2)o1 (centres undefined)	·	-17%	·	-9%	-4%	·	·	2%
Cc1nnc(NC(=O)CCC(=O)N2CCN(CCc3ccccc3)CC2)s1	·	3%	-2%	·	·	-0.9%	7%	2%
O=C(CSC(=S)N1CCOCC1)Nc1ncc2c(n1)CC(c1ccco1)CC2=O (centres undefined)	-2%	4%	?	-14%	-4%	·	·	2%
COc1ccccc1CCNS(=O)(=O)c1cc2c3c(c1)C(C)C(=O)N3CCC2 (centres undefined)	·	7%	·	25%	-9%	·	·	12%
COc1ccc(-n2c(Cc3cccn3C)nnc2SCC(=O)NCc2ccco2)cc1	8%	10%	-7%&-7%	15%	0%	-0.3%	3%	11%
CC(=O)Nc1ccc(N2S(=O)(=O)c3ccccc3S2(=O)=O)cc1	-2%	-6%	10%	-4%	12%	-4.6%	-1%	1%
CCOC(=O)N1CCN(CC(=O)Nc2ccc(F)cc2)CC1	-25%[46.1 µM]	5%	0%[46.1 µM]	-9%	6%	·	·	-1%
COC(=O)CN(C#N)c1nc(C)cc(C)n1	8%	1%	-30%	-4%	14%	-2.4%	-2%	-29%
O=C(COC(=O)c1cccnc1Nc1cccc(C(F)(F)F)c1)NCc1ccc2c(c1)OCO2	?	2%	?	?	-1%	-4.3%	-11%	-2%
Cc1cc(C(=O)CN2C(=O)NC3(CCCC3)C2=O)c(C)n1-c1ccc2c(c1)OCO2	8%	6%	28%	43%[activator]	4%	-4.3%	-19%	-18%
OC1(C(F)(F)F)CC(O)(C(F)(F)F)n2nc(-c3ccccc3)cc2N1 (centres undefined)	17%	1%	13%	9%	-1%	0.2%	3%	-2%
O=C(NC1CC(=O)N(c2cccc(F)c2)C1)C1CCCC1 (centres undefined)	3%[46.1 µM]	·	·	-7%	·	-0.6%	-15%	·
Cc1cc(-c2ccc(Cl)cc2)oc(=O)c1NC(=O)c1ccccc1	0%	6%	-45%	-15%	-4%	5.1%	-2%	3%
CCOc1ccc(OCCC(=O)OCC(=O)N2CCN(S(=O)(=O)c3ccc(C)cc3C)CC2)cc1	0%	·	1%	-3%	-11%	·	·	·
CN1CCCC(OC(=O)/C(C#N)=C/c2ccccc2)C1 (centres undefined)	14%[46.1 µM]	·	11%[46.1 µM]	3%	4%	·	·	-2%
CCN(C(=O)c1ccc2c(=O)n3c(nc2c1)CCCCC3)c1cc(C)ccc1C	-4%[46.1 µM]	·	10%[46.1 µM]	-11%	·	-1.5%	-8%	·
Cc1cc(C)cc(OCC(=O)Nc2nc3ccc([N+](=O)[O-])cc3s2)c1	-16%	17%	16%	20%	3%	5.1%	-2%	-1%
CSc1nc(C)cc(Oc2ccc(OCCOc3ccccc3)nn2)n1	10%	-9%	6%	-16%	-2%	0.6%	-8%	5%
COc1cc(OC)c(C(=O)NCc2ccco2)cc1OC	-17%[46.1 µM]	9%	8%[46.1 µM]	27%	-1%	·	·	3%
CCC(=Cc1ccccc1OC)c1ccncc1	-1%[46.1 µM]	·	?	?	-2%	·	·	·
Cc1ccc(S(=O)(=O)N(CC(=O)N2CCN(c3ccccc3F)CC2)C2CCCCC2)cc1	?	6%	?	2%	-30%	-1.4%	15%	3%[6.58 µM]
O=C(NCCCN1CCCC1=O)c1cc2nc(-c3ccco3)cc(C(F)(F)F)n2n1	1%	4%	2%[46.1 µM]	10%	-12%	·	·	22µM*
O=S(=O)(NCC1CCCO1)c1ccc(-c2ccc(S(=O)(=O)NCC3CCCO3)cc2)cc1 (centres undefined)	·	-3%	-38%[46.1 µM]	-25%	-7%	·	·	-1%
O=C(c1ccco1)N1CCN(c2nc3c(Cl)cccc3s2)CC1	-2%[46.1 µM]	·	·	21%	·	-1.0%	-2%	·
CC(C)(C)n1nc2c(c1NC(=O)c1cccc(C(F)(F)F)c1)CS(=O)C2 (centres undefined)	-15%	1%	-1%	0%	7%	4.6%	7%	-8%
COC(=O)[C@@H](NC(=O)Nc1cc(Cl)ccc1C)C(C)C	6%	27%	15%	3%	18%	3.7%	-13%	-1%
COc1cc(C(=S)N2CCOCC2)ccc1OC(=O)c1cc([N+](=O)[O-])c(C)c([N+](=O)[O-])c1	7%	16%	?	-17%	·	-10%	13%	16%
COc1cc2c(cc1OC)C(C)N(C(=O)C1COc3ccccc3O1)CC2 (centres undefined)	?	-130%	?	25µM*	23%	0.4%	-7%	20%
NC(Cc1ccccc1)C(O)(c1ccccc1)c1ccccc1 (centres undefined)	·	2%	·	-12%	-13%	·	·	0%
CCOc1ccc(N=Nc2ccc(O)c3ncccc23)cc1	-20%[46.1 µM]	4%	?	14%	-8%	·	·	1%
O=C1CCN(S(=O)(=O)c2cccs2)c2ccc(C(F)(F)F)cc2N1	3%	-2%	5%[46.1 µM]	1%	-12%	·	·	1%
Cc1cccc(-n2c(N)c(-c3nc4ccccc4n3C)c3nc4ccccc4nc32)c1	?	14%	?	-21%	-8%	-5.3%	-4%	-1%

New compounds follow
smiles	LASV entry inh	NS1 function inh	Marburg entry inh	StopGo reporter	RE007 growth inh	Cruzain inh Det	Cruzain inh noDet	SARS PLP yeast
Cc1[nH]nc(NCCO)c1[N+](=O)[O-]	19%	·	-11%	0%	1%	·	·	2%
CN(CC(=O)Nc1ccccc1Br)C(=O)c1cccc([N+](=O)[O-])c1	20%[46.1 µM]	4%	12%[46.1 µM]	-2%	5%	·	·	6%
CCCc1c(O)nc(SCCN(CC)CC)n(C(=O)c2ccccc2)c1=O	5%	-6%	?	3%	2%	1.4%	-3%	3%
O=C(O)c1ccc2nc(-c3cc4cccc(O)c4oc3=O)[nH]c2c1	-17%[46.1 µM]	·	·	?	·	-11%	-8%	-1%
COC(=O)C1=C(C)N=C2SC(C)C(=O)N2C1c1ccc(C(=O)OC)cc1 (centres undefined)	-1%	18%	?	10%	15%	-5.3%	?	-2%

Compound activity deposited in PubChem by National Center for Advancing Translational Sciences (NCATS).
